Compound activity as filed in PubChem BioAssay.
KCNQ2 block – KCNQ2 potassium channel inhibitors, primary screen, cell-based, CHO-K1, FluxOR thallium flux, B-score (AID 2156). B-score at 10 µM. 20 min; stronger effect = lower value; only compounds with negative scores are shown here; some inactives read as strong as hits. hit rate 1.1% among 310,000;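 active = fluorescence ratio B-score at most minus 3 library SDs, with starting brightness B-score within 2 library SDs, cut at about -5.5 in these data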
Target sequence (O88943 whole entry, looked up): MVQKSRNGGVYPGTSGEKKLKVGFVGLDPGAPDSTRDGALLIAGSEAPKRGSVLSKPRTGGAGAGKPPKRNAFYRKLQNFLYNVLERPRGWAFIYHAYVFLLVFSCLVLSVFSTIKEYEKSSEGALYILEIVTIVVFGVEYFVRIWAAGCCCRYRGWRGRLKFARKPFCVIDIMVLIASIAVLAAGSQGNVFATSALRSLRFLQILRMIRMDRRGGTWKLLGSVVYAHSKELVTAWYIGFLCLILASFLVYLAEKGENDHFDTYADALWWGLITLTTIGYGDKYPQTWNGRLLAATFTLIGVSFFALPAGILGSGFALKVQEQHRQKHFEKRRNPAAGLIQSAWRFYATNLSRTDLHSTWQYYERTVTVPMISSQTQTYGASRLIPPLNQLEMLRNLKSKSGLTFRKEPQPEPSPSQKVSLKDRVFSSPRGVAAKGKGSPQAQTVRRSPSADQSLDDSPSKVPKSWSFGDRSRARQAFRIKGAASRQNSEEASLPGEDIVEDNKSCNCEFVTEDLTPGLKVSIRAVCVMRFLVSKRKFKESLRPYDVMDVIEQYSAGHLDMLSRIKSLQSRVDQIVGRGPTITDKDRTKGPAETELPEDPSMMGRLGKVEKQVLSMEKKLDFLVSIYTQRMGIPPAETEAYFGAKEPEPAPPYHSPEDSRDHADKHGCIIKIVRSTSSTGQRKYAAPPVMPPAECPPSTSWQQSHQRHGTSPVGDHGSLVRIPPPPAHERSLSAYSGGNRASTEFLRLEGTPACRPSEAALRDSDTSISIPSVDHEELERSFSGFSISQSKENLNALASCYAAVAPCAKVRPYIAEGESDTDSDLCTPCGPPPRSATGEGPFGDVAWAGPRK
KCNQ2 block baseline – recorded beside KCNQ2 block, whose call it bears; B-score; measured here: initial fluorescence intensity artifact check;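 brightness before thallium and not channel activity; 0 = typical well and far values either way flag optical interference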
* = called active by the depositor; i = inactive. Some of the compounds tested; the hit share may differ from the screen's.

SMILES | KCNQ2 block | KCNQ2 block baseline
CCOc1ccccc1N1CCN(C(=O)c2ccc(-c3ccc(OC(C)=O)cc3)cc2)CC1 | i | 1.26
COc1ccc(Br)cc1/C=C\C(=O)NCc1cccnc1 | i | -0.57
O=C(CN1CCN(Cc2ccc3c(c2)OCO3)CC1)Nc1ccc2c(c1)OCO2 | i | 0.18
O=C(OCc1ccccc1Cl)c1ccc(-n2cnnc2)cc1 | i | 0.33
Fc1ccc(N2CCN(Cc3nnc(-c4ccccc4)o3)CC2)cc1 | i | 2.46
C#CCOCCOCCOCCNc1nc(N2CCN(C(=O)[C@H](CCCCN)n3cc([C@@H](N)C(C)CC)nn3)CC2)nc(N2CCN(C(=O)[C@H](Cc3cc4ccccc4[nH]3)n3cc([C@@H](N)CC(C)C)nn3)CC2)n1 (some centres not stated) | i | 1.76
Cc1c(OC(=O)c2ccc([N+](=O)[O-])cc2)c2c(c[n+]1C)COC(C)(C)OC2 | i | 2.73
C/C(=N\NC(=O)C1CC1)c1cccc(NC(=O)c2cccc(Cl)c2)c1 | i | 0.26
O=c1[nH]c(C2CCN(S(=O)(=O)c3ccc(C(F)(F)F)cc3)CC2)nc2c1nnn2Cc1ccc(F)cc1 | i | 1.94
Cc1cc(Cl)c(S(=O)(=O)NC(C(=O)O)C(C)C)cc1OCC(=O)NC1CCCCC1 (configuration not stated) | i | -0.9
COc1ccc(OC)c(NC(=O)CCc2c[nH]c3ccccc23)c1 | i | -0.06
COc1ccccc1NC(=O)CC1SC(=N)N(c2ccccc2)C1=O (configuration not stated) | i | 0.06
O=C(Nc1ccccc1)c1cc(-c2ccccc2Cl)no1 | i | -1.35
O=C(O)/C=C/c1cn(-c2ccccc2)nc1-c1cc2ccccc2oc1=O | i | -0.08
CCc1sc(C(=O)NCc2ccco2)cc1Br | i | -1.66
Cc1cc([N+](=O)[O-])nn1CC(=O)NNC(=S)Nc1ccc(Cl)cc1 | i | -0.38
Clc1ccc(CNCc2cccs2)cc1Cl | i | -0.04
O=C(NC1CCCC1)C1(c2ccccc2)CCN(S(=O)(=O)c2ccccc2)CC1 | i | -0.3
COC(=O)c1[nH]c2ccc(Br)cc2c1NC(=O)CN1CCCCC1CCO (configuration not stated) | i | -2.86
Cc1ccc(NC(=O)CN2CCC(C(=O)c3ccc(F)cc3)CC2)cc1 | i | -1.22

Copied from the list.
`C/C(=N\NC(=O)C1CC1)c1cccc(NC(=O)c2cccc(Cl)c2)c1` in KCNQ2 block baseline shows 0.26
`Fc1ccc(N2CCN(Cc3nnc(-c4ccccc4)o3)CC2)cc1` in KCNQ2 block baseline shows 2.46

The results go on.
SMILES | KCNQ2 block | KCNQ2 block baseline
COc1ccc(-c2csc(/C(C#N)=C\c3cccc([N+](=O)[O-])c3)n2)cc1 | i | 1.24
COC(=O)CCC(=O)OC1(C)C(=O)C2=CN(CC3CC3)C(c3ccc(OC)cc3)=CC2=C(Br)C1=O (configuration not stated) | i | 0.69
CC(=O)N1CCCc2cc(S(=O)(=O)N(C)Cc3ccccc3)ccc21 | i | -0.08
CCC(O)c1c(-c2ccccc2)nn(C)c1Cl (configuration not stated) | i | 6.8
O=c1[nH]c(-c2ccc3c(c2)OCO3)nc2c1sc(=S)n2-c1ccccc1 | i | -0.74
OC(COCc1ccccc1)Cn1cnc2ccccc21 (configuration not stated) | i | -0.55
Cc1cccc(COc2ccccc2/C=N/Nc2ccc([N+](=O)[O-])cc2)c1 | i | 1.16
CCc1c(C(=O)Nc2ccc(OC)cc2)[nH]c(C)c1C(C)=O | i | -0.29
CCOC(=O)C1=C(C)NC(SC)=C(C#N)C1CC(C)C (configuration not stated) | i | 0.04
Cc1ccc(S(=O)(=O)NC2CC2)cc1[N+](=O)[O-] | i | -0.05
Cc1cc2c(=O)n(Cc3ccco3)c(SCC(=O)NCc3ccco3)nc2s1 | i | -2.35
COc1ccc(C(=O)NC(C)CCCC(C)(C)O)cc1OC1CCN(C(C)=O)CC1 (configuration not stated) | i | -1.85
NC(=O)NC(=O)COC(=O)c1ccc2c(c1)C(=O)N(Cc1ccccc1)C2=O | i | 0.26
COc1ccc2c(c1)C1=NN(/C(C)=C\C(C)=O)C(c3ccccc3)C1CC2 (configuration not stated) | i | 3.09
O=C(CSc1ccccc1)Nc1nc2ccccc2[nH]1 | i | -1.08
COc1cccc(C2CC(c3cccs3)=NN2C(=O)CSc2nc3ccccc3o2)c1OC (configuration not stated) | i | 1.77
CCCC(=O)Nc1ccc2c(c1)nc(CCN1CCN(c3ccccn3)CC1)n2C | i | -1.62
Cn1nc(Cc2n[nH]c(=S)n2C)c2ccccc2c1=O | i | 0.08
COC(=O)C1=C(O)/C(=C\c2ccc(CNC(=O)C(=O)Nc3ccc(C)c(C)c3)o2)N=C1C | i | -0.95
CC(C)CN(C(=O)COC(=O)CCC(=O)c1ccc(Cl)cc1)c1c(N)n(Cc2ccccc2)c(=O)[nH]c1=O | i | -1.79

Of the compounds above, two contain a COOH group.
SMILES | KCNQ2 block | KCNQ2 block baseline
Cc1cc(Cl)c(S(=O)(=O)NC(C(=O)O)C(C)C)cc1OCC(=O)NC1CCCCC1 (configuration not stated) | i | -0.9
O=C(O)/C=C/c1cn(-c2ccccc2)nc1-c1cc2ccccc2oc1=O | i | -0.08

Additional entries follow:
SMILES | KCNQ2 block | KCNQ2 block baseline
O=C(CCNS(=O)(=O)c1ccc2[nH]c(=O)oc2c1)Nc1cccc(Br)c1 | i | -0.63
COc1ccc(-c2noc(N3CCC(C(=O)Nc4ccccc4OC)CC3)n2)cc1 | i | -0.07
O=C(Cn1cnc2ccc(Br)cc2c1=O)c1cccs1 | i | -0.95
c1ccc(SCc2nc3ccccc3[nH]2)cc1 | i | -1.19
Cc1ccc(-c2nc(S(=O)(=O)c3ccc(F)cc3)c(SCC(=O)NCC3CCCO3)o2)cc1 (configuration not stated) | i | 1.37
CN(C)c1ccc(/C=N/NC(=O)CCc2c[nH]c3ccccc23)cc1 | i | 0.85
COc1ccc(/C=C/C(=O)NC(=S)NNC(=O)Cc2cccs2)cc1 | i | -0.11
COc1ccccc1N1C(=NC(=O)CCc2ccccc2)SC2CS(=O)(=O)CC21 (configuration not stated) | i | 0.92
CCOC(=O)CCc1c(C)nc(SCC(=O)O)c(C#N)c1C | i | -0.21
CCC[C@@H](CNC)NC[C@H](Cc1ccccc1)NCCCCc1ccccc1 | -6* | -0.15*
COCCn1c(=NC(=O)c2cc3ccccc3oc2=O)sc2cc(S(N)(=O)=O)ccc21 | i | -2.98
Cc1ccc(Cl)cc1N1CCN(C(=O)CN(c2ccccc2)S(=O)(=O)N(C)C)CC1 | i | -0.86
COc1ccc(NC(=O)/C(=C\c2ccc3c(c2)OCO3)NC(C)=O)cc1 | i | -0.74
COc1cc2c(cc1OC)C(c1cccs1)N(C(=O)c1cccc(S(=O)(=O)N(C)C)c1)CC2 (configuration not stated) | i | -0.86
Cc1cccc([C@@H]2[C@@H]3C(=O)N(Cc4ccccc4)C(=O)[C@@H]3[C@]3(Cc4ccc(Cl)cc4)C(=O)N(c4cccc(Cl)c4)C(=O)N23)c1 | i | -2.68
CCOC(=O)/C=C1\SCC(=O)N1CC(=O)NCc1ccc(OC)c(OC)c1 | i | 0.19
Cc1nc2ccc(NC(=O)c3ccc(S(=O)(=O)N(C)c4ccccc4)cc3)cc2s1 | i | 0.86
CCCCNc1c(-c2ccc(SC(C)CC)c(OC)c2)nc2ccc(C)cn12 (configuration not stated) | i | -0.58
COC(=O)C(CC(=O)c1ccccc1)CC(=O)c1ccccc1 | i | -0.08
Cc1c(C)c(C)c(CN2CCSCC2)c(C)c1C | i | 0.86

Continued (four carried over from the part before).
SMILES | KCNQ2 block | KCNQ2 block baseline
Cc1nc2ccc(NC(=O)c3ccc(S(=O)(=O)N(C)c4ccccc4)cc3)cc2s1 | i | 0.86
CCCCNc1c(-c2ccc(SC(C)CC)c(OC)c2)nc2ccc(C)cn12 (configuration not stated) | i | -0.58
COC(=O)C(CC(=O)c1ccccc1)CC(=O)c1ccccc1 | i | -0.08
Cc1c(C)c(C)c(CN2CCSCC2)c(C)c1C | i | 0.86
CC1(C)CC(=O)C(C=NCCCn2ccnc2)=C(O)C1 | i | -0.23
C/C(=N/NC(=O)C1COc2ccccc2O1)c1ccco1 (configuration not stated) | i | -0.57
Cc1ccc(C)c2[nH]c(=O)c(CN(CC3CCCO3)C(=O)NC3CCCCC3)cc12 (configuration not stated) | i | -0.42
Cc1ccc(N=C2c3ccccc3C(=O)C2[N+](=O)[O-])cc1C (configuration not stated) | i | 0.27
O=C(N/N=C/c1sc(N2CCOCC2)nc1-c1ccccc1)c1cccc(S(=O)(=O)N2CCOCC2)c1 | i | -1.3
Cc1scc(C(=O)NNC(=S)NCC2CCCO2)c1C (configuration not stated) | i | 0.62
CCCCOC(=O)c1ccc(NC(=O)Nc2ccc(OC)c(OC)c2)cc1 | i | -0.47
Cc1ccccc1NC(=O)CN1C(=O)NC(C)(c2ccc3c(c2)OCO3)C1=O (configuration not stated) | i | 0.68
COc1ccc(CCNC(=O)c2csc3c2CCCC3)cc1 | i | -2.33
CCC(C(=O)NC1CCCC1)N(C(=O)c1snc(C(N)=O)c1N)c1ccc2c(c1)OCCO2 (configuration not stated) | i | -0.2
CCCCn1c(=O)c(CCC(=O)OCC(=O)NC(=O)NCCOC)nc2ccccc21 | i | 0.22
O=C(N/C(=C\c1ccc(Br)cc1)C(=O)N1CCOCC1)c1ccc(Br)o1 | i | -0.53
Cc1cc(C(=O)NCCc2ccccc2)ccc1[N+](=O)[O-] | i | 2.16
O=C(Nc1ccnn1C1CCN(C/C=C/c2ccccc2)CC1)C1CCCC1 | i | 0.13
COC(=O)c1cn(-c2ccc(F)cc2)c(=O)c2ccccc12 | i | -2.77
COCCN(C(=O)COC(=O)COc1ccc(Cl)c(C)c1)c1c(N)n(Cc2ccccc2)c(=O)[nH]c1=O | i | -0.67
COc1ccc(-c2cc(Nc3ccccc3NC(=O)C(F)(F)F)n(CCC#N)n2)cc1 | i | 0.44
Cc1ccc(C(=O)/C=C/c2cn(CN3CCN(C)CC3)c3ccccc23)cc1 | i | -0.26
COc1cc(NC(=O)CCc2nnc3ccc(N4CCCC4)nn23)cc(OC)c1OC | i | -1.28
COc1ccccc1N1CCN(C(=O)C(C)N(c2ccccc2)S(C)(=O)=O)CC1 (configuration not stated) | -5.69* | 0.06*
CCNC(=S)N(CCc1c(C)[nH]c2ccc(Cl)cc12)Cc1ccco1 | i | 0.09
CC(C)(C)OC(=O)CNC(=O)c1[nH]cnc1C(=O)NC(c1ccccc1)c1ccccc1 | i | -2.59
c1ccc(-n2ncc3c(NC4CCCCCC4)ncnc32)cc1 | i | 1.1
COc1cc(/C=C2/C(=O)NN(c3ccc(C)c(Cl)c3)C2=O)cc([N+](=O)[O-])c1O | i | 1.08
CCNC(=O)COc1cccc2ccccc12 | i | 1.21
Cc1ccc(Cl)cc1NS(=O)(=O)c1ccc2oc(=O)ccc2c1 | i | 1.68
S=C(NCC1CCCO1)N1CCN(c2ccccc2)CC1 (configuration not stated) | i | -0.34
Cc1ccc(N2CC(C(=O)OCC(=O)Nc3ccccc3F)CC2=O)cc1 (configuration not stated) | i | 1.55
O=C(NCc1ccccc1)C(c1ccco1)N(C(=O)c1csnn1)c1ccccc1F (configuration not stated) | -6.27* | 0.02*
O=C(O)CCCCCNC(=O)C(=O)C1C(=O)Nc2ccccc21 (configuration not stated) | i | 2.61
COc1ccccc1C(=O)CC(=O)C(=O)Nc1cccc([N+](=O)[O-])c1C | i | -0.09
CSc1ccccc1OCc1cc(C(=O)NCC(C)(C)N2CCOCC2)no1 | i | 2.06
CCN(CC(=O)Nc1c(F)cccc1F)C(=O)CCC(=O)c1ccc(F)cc1 | i | 0.42
CCc1nc2ccccc2c(C(=O)OCC(=O)NCc2ccc3c(c2)OCO3)c1C | -5.85* | -0.99*
COc1ccc(C2/C(=C(/O)c3ccccc3)C(=O)C(=O)N2c2ccccn2)cc1OC (configuration not stated) | i | -2.05
C=CCNC(=O)C1=NN(c2c(F)c(F)cc(F)c2F)C(=O)CC1 | i | 0.18
O=C(NC1CCCCCCC1)NC1CCCCC1 | i | 0.01
O=C1C(=O)N(CC2CCCO2)C(c2ccccc2[N+](=O)[O-])/C1=C(/O)c1ccccc1 (configuration not stated) | i | -1.36
N=C1c2ccccc2CN1NC(=O)c1cccc(S(=O)(=O)N2CCCCC2)c1 | i | 0.42
CC(=O)c1sc2nc(-c3cccs3)ccc2c1N | i | 2.41
C/C(=N\NC(=O)C(C)Sc1ccccc1)c1ccc([N+](=O)[O-])cc1 (configuration not stated) | i | 0.18
O=C(O)CSc1nc2c(c(=O)[nH]1)CCCC2 | i | 0.38
Cc1cc(C)c(N2C(=NC(=O)CCCC(=O)O)SC3CS(=O)(=O)CC32)c(C)c1 (configuration not stated) | i | 0.92
O=C(CCNC(=O)c1ccccc1Cl)NCc1ccncc1 | i | 0.71
O=S(NCc1ccccc1)C12CC3CC(CC(C3)C1)C2 (configuration not stated) | i | -0.13

Grouped by structure, the entries above containing bromine.
SMILES | KCNQ2 block | KCNQ2 block baseline
COc1ccc(Br)cc1/C=C\C(=O)NCc1cccnc1 | i | -0.57
CCc1sc(C(=O)NCc2ccco2)cc1Br | i | -1.66
COC(=O)c1[nH]c2ccc(Br)cc2c1NC(=O)CN1CCCCC1CCO (configuration not stated) | i | -2.86
COC(=O)CCC(=O)OC1(C)C(=O)C2=CN(CC3CC3)C(c3ccc(OC)cc3)=CC2=C(Br)C1=O (configuration not stated) | i | 0.69
O=C(CCNS(=O)(=O)c1ccc2[nH]c(=O)oc2c1)Nc1cccc(Br)c1 | i | -0.63
O=C(Cn1cnc2ccc(Br)cc2c1=O)c1cccs1 | i | -0.95
O=C(N/C(=C\c1ccc(Br)cc1)C(=O)N1CCOCC1)c1ccc(Br)o1 | i | -0.53
